Rango release inh – inhibition of RanGTP-driven Rango-importin beta dissociation; O95149+P62826; Biochemical FRET Rango-importin beta, RanGTP-induced dissociation; Potency, µM (top dose mostly 46.1 µM), inactives show top-dose activity change, negative = inhibition; actives 0.071% (n = 340,000); AID 540253; active means falling FRET ratio curve, often poorly fitted, with flat reads before Ran was added; inconclusive means other falling curves, or compound fluorescence or quenching; inactive means flat or rising ratio curve;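 note: potency is the fitted concentration of half-maximal effect; % of control where 0% means no effect; nearly all actives have a fitted effect of over 45% in size; -100% = wells without RanGTP and RCC1; the record marks most hits as doubtful in a second field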
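Two FRET readings bracket the reaction: one 5 min after compound meets Rango–importin beta, another 45 min after RanGTP-RCC1 (0.6 uM Ran, 0.2 uM RCC1, 2 mM GTP) is added. Only the second defines inhibition.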
Rango-impB inh – inhibitors of Rango-importin beta complex formation; actives 0.031% (n = 340,000); AID 540263; Potency, µM (titrated, usually from 92.2 µM), without a hit: top-dose inhibition of complex formation; Rango CFP/YFP FRET sensor + importin beta, 45 min; Q14974; active = rising FRET ratio curve, often small or poorly fitted; inconclusive = mostly compound fluorescence or quenching in the first reads; inactive = flat curves in all reads;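 note: potency is the fitted concentration of half-maximal effect; 0% = DMSO wells and 100% = buffer wells lacking importin beta; nearly all actives have a fitted effect of over 15% in size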
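Inhibition scored from the CFP 486 nm/YFP 530 nm FRET ratio 45 min after adding 0.125 microM importin beta to 50 nM Rango biosensor preincubated 5 min with compound (room temperature, PBS with DTT, Tween-20, BSA). No-importin wells as positive control.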
GLA inh pH 4.5 – blocks human alpha-galactosidase A at pH 4.5; activity change, negative = inhibition, % at 105 µM; purified enzyme, 4-MU-alpha-Gal fluorescence, pH 4.5; 230,000 tested, under 10 active; P06280; AID 1467; inconclusive = small, poorly fitted or top-dose-only inhibition, or a rising curve; inactive = flat fitted curve, though single readings scatter; no compound was filed as active;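 note: 0% = full activity with enzyme and -100% = basal without enzyme; dose as in the result columns while the protocol names 77 µM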
Target sequence (P06280 whole entry, looked up): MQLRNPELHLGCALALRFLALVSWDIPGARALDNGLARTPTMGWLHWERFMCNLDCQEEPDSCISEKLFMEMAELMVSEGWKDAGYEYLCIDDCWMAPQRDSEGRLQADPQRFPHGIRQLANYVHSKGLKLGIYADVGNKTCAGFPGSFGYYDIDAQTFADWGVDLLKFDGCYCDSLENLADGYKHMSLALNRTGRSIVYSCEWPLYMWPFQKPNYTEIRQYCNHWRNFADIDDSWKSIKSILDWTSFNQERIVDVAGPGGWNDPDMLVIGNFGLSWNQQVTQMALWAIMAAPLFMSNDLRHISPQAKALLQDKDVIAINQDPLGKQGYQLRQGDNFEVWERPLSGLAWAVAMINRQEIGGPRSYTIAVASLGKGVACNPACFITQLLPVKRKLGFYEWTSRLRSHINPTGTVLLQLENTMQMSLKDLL
miR-21 FLuc – raises the signal of a miR-21 reporter; 340,000 tested, under 10 active; HeLa miR-21 FLuc reporter, luciferase, 48 h; Potency, µM (doses to about 38.3 µM), for inactives: top-dose reporter change, positive = more light; active = well fitted rising curve with a large enough effect; inconclusive = small, poorly fitted or top-dose-only effect; inactive = no such curve, though single readings can be large or run the other way;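 note: % of control where 0% means no effect; miR-21 action dims this reporter so a rising signal means less miR-21 action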
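Luminescence from a firefly luciferase reporter carrying a miR-21 binding site downstream, stably expressed under a CMV promoter in HeLa cells that make miR-21 endogenously, reports miRNA modulation after 48 h compound exposure up to approximately 40uM final.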
Active calls of the source: *; & = joins results of further samples.

Sample of the layout (3 entries):
CC(Sc1nc(-c2ccccc2)cc(C(F)(F)F)n1)C(=O)N1CCCC1 (centres undefined) was read as Rango release inh -4%, Rango-impB inh -2.6%, GLA inh pH 4.5 6 and miR-21 FLuc -6%.
For CCOC(=O)N1CCN(c2c(NCCCN(C)c3ccccc3)c(=O)c2=O)CC1 the results were Rango release inh -2%, Rango-impB inh 0.7%, GLA inh pH 4.5 -15 and miR-21 FLuc -2%.
For COC(=O)c1ccccc1NC(=O)Cc1ccccc1OC the results were Rango release inh 9%, Rango-impB inh -5.7%, GLA inh pH 4.5 4 and miR-21 FLuc -7%.

The list itself, repeating the preview:
CC(Sc1nc(-c2ccccc2)cc(C(F)(F)F)n1)C(=O)N1CCCC1 (centres undefined) was read as Rango release inh -4%, Rango-impB inh -2.6%, GLA inh pH 4.5 6 and miR-21 FLuc -6%.
For CCOC(=O)N1CCN(c2c(NCCCN(C)c3ccccc3)c(=O)c2=O)CC1 the results were Rango release inh -2%, Rango-impB inh 0.7%, GLA inh pH 4.5 -15 and miR-21 FLuc -2%.
For COC(=O)c1ccccc1NC(=O)Cc1ccccc1OC the results were Rango release inh 9%, Rango-impB inh -5.7%, GLA inh pH 4.5 4 and miR-21 FLuc -7%.
Screening N/C(=N\N=C\c1cccc([N+](=O)[O-])c1)c1nonc1N returned Rango release inh 9%, Rango-impB inh 1.3%, GLA inh pH 4.5 -16 and miR-21 FLuc -60%.
`Cc1ccccc1NC(=S)N(CCN(C)C)C(C)c1cccnc1` (centres undefined) gave Rango release inh 7%, Rango-impB inh -1.0%, GLA inh pH 4.5 4 and miR-21 FLuc -1%.
COc1ccccc1C(=O)C1Nc2ccccc2-c2nnc(SC)nc2O1 (centres undefined) was read as Rango release inh 13%, Rango-impB inh 4.8%, GLA inh pH 4.5 -11 and miR-21 FLuc -1%.
For C[C@H]1CN([C@@H](C)CO)C(=O)c2cccc(NC(=O)c3cnccn3)c2O[C@@H]1CN(C)C(=O)Nc1ccc2c(c1)OCO2 the results were Rango release inh -8% and Rango-impB inh -4.9%.
NC(=O)c1cccc2cc3ccccc3cc12 was read as Rango release inh -20%, Rango-impB inh -0.3%, GLA inh pH 4.5 -1 and miR-21 FLuc -9%.
`O=C(NCCCN1CCOCC1)C1CCC(=O)N1CCc1ccccc1` (centres undefined) gave Rango release inh -1%, Rango-impB inh -1.7%, GLA inh pH 4.5 3 and miR-21 FLuc -1%.
`O=C(NC(=S)Nc1cnc2ccccc2c1)c1ccccc1` gave Rango release inh -12%, Rango-impB inh -1.5%, GLA inh pH 4.5 2 and miR-21 FLuc -61%.
Screening O=C(NCc1ccccc1Br)c1ccco1 returned Rango release inh -12%, Rango-impB inh 0.3%, GLA inh pH 4.5 -8 and miR-21 FLuc 0%.
COc1ccc(S(=O)(=O)N2CCN(C3CCCCCCC3)CC2)cc1 was read as Rango release inh 2%&1%, Rango-impB inh -0.5%&-4.0%, GLA inh pH 4.5 -6&-1 and miR-21 FLuc -4%&0%.
For COc1ccc(C(=O)N2CCN(CCc3ccccn3)CC2)cc1 the results were Rango release inh 5%, Rango-impB inh -0.9% and miR-21 FLuc -3%&-12%.
O=C(O)c1ccc(S(=O)(=O)NC2CC2)cc1 was read as Rango release inh -5%, Rango-impB inh -0.4%, GLA inh pH 4.5 8 and miR-21 FLuc 7%.
CCOCCOC(=O)c1[nH]c2c(c1C)C(=O)CC(c1cccs1)C2 (centres undefined) was read as Rango release inh -8%, Rango-impB inh 4.8%, GLA inh pH 4.5 8 and miR-21 FLuc 27%.
Screening CN1CCN(CC#CC2(O)CCCCC2)CC1 returned Rango release inh 8%, Rango-impB inh -1.5%, GLA inh pH 4.5 8 and miR-21 FLuc -17%.
Screening CCC(C)(NC(=O)Cc1c[nH]c2ccccc12)C(=O)NC1CCCCC1 (centres undefined) returned Rango release inh 10%, Rango-impB inh 4.8%, GLA inh pH 4.5 -2 and miR-21 FLuc -9%.
For CCN1CCN(C(=S)NC(=O)c2cc(OC)c(OC)c(OC)c2)CC1 the results were Rango release inh 2% and Rango-impB inh 0.6%.
Screening Cc1ccc(-c2cc(C(=O)N/N=C/C=C/c3ccccc3)n[nH]2)s1 returned Rango release inh 14%, Rango-impB inh -0.5%, GLA inh pH 4.5 -6 and miR-21 FLuc -7%.
CC1CC(=O)N(CC(=O)Nc2ccc3c(c2)OCCO3)c2ccccc2S1 (centres undefined) was read as Rango release inh -4%, Rango-impB inh 0.0%, GLA inh pH 4.5 2 and miR-21 FLuc -5%.

Brought forward from above: 2 compounds, then new ones.
Screening Cc1ccc(-c2cc(C(=O)N/N=C/C=C/c3ccccc3)n[nH]2)s1 returned Rango release inh 14%, Rango-impB inh -0.5%, GLA inh pH 4.5 -6 and miR-21 FLuc -7%.
CC1CC(=O)N(CC(=O)Nc2ccc3c(c2)OCCO3)c2ccccc2S1 (centres undefined) was read as Rango release inh -4%, Rango-impB inh 0.0%, GLA inh pH 4.5 2 and miR-21 FLuc -5%.
For COc1cc(C(=O)NCCSc2ccc(F)cc2)cc(OC)c1OC the results were Rango release inh 12%, Rango-impB inh -4.8% and miR-21 FLuc 6%.
CCOC(=O)C1=C(C)NC2(O)c3ccccc3C(=O)C12O (centres undefined) was read as Rango release inh 5%, Rango-impB inh 0.0%, GLA inh pH 4.5 4 and miR-21 FLuc -8%.
For Cc1cc([N+](=O)[O-])nn1CC(=O)NCc1cccs1 the results were Rango release inh -11%, Rango-impB inh -4.6%, GLA inh pH 4.5 1 and miR-21 FLuc -3%.
Screening CC(c1nnnn1C1CCCCC1)N(Cc1ccccc1)Cc1cccnc1 (centres undefined) returned Rango release inh -12%, Rango-impB inh -0.5%, GLA inh pH 4.5 2 and miR-21 FLuc 0%.
For CCOC(=O)C1(Cc2ccccc2C(F)(F)F)CCN(C2CCN(C(C)C)CC2)CC1 the results were Rango release inh 10%, Rango-impB inh -3.9%, GLA inh pH 4.5 -3 and miR-21 FLuc -1%.
CN(C(=S)Nc1ccc(Oc2ccccc2)cc1)c1ccc(O)cc1 was read as Rango release inh 18%, Rango-impB inh 2.2%, GLA inh pH 4.5 1 and miR-21 FLuc -7%.
For CCCc1cc(=O)oc2cc(OCc3nn[nH]n3)ccc12 the results were Rango release inh 38%, Rango-impB inh -6.6%, GLA inh pH 4.5 2 and miR-21 FLuc -2%.
`C=CCNC(=O)c1ccc(-c2ccc([N+](=O)[O-])cc2)o1` gave Rango release inh -20%, Rango-impB inh -0.4%, GLA inh pH 4.5 -1 and miR-21 FLuc -39%.
Cc1ccc(C(=O)N2CCN(C3c4cccc5cccc(c45)C3NS(=O)(=O)c3ccccc3)CC2)cc1 (centres undefined) was read as Rango release inh inconclusive, Rango-impB inh 0.1%, GLA inh pH 4.5 2 and miR-21 FLuc 18%.
`CC(=O)C1C(c2ccc3ncccc3c2)NC(=O)NC1(O)C(F)(F)F` (centres undefined) gave Rango release inh -10%, Rango-impB inh 6.3%, GLA inh pH 4.5 4 and miR-21 FLuc -29%.
CC(=O)c1cc(C(=O)Nc2ccc3ccccc3c2)c(C)o1 was read as Rango release inh 0%, Rango-impB inh inconclusive and miR-21 FLuc -4%.
For O=C(/C=C/c1ccccc1)N/C(=C\c1ccco1)C(=O)O the results were Rango release inh -10%, Rango-impB inh -0.1%, GLA inh pH 4.5 0 and miR-21 FLuc -4%.
`CC1=C(Nc2ccc(C(=O)O)cc2)C(=O)c2ccccc2C1=O` gave Rango release inh -8%, Rango-impB inh 0.3% and miR-21 FLuc 0%.
Screening CC1(C)CN=c2s/c(=C\c3ccc(Cl)cc3)c(=O)n2C1 returned Rango release inh 14%, Rango-impB inh -0.6%, GLA inh pH 4.5 -2 and miR-21 FLuc -25%.
`C#Cc1cccc(NC(=O)c2ccc3c(c2)C(=O)N(Cc2cccnc2)C3=O)c1` gave Rango release inh 21%, Rango-impB inh -3.0% and miR-21 FLuc -3%.
For Cc1cc(C)cc(NC(=S)NC(=O)Cc2ccccc2)c1 the results were Rango release inh 1% and Rango-impB inh 0.8%.
For O=C(CN1C(=O)NC2(CCCCCC2)C1=O)Nc1ccccc1[N+](=O)[O-] the results were Rango release inh -10% and Rango-impB inh -0.5%.
Screening Cc1cc(/C=C2\SC(=S)NC2=O)c(C)n1-c1ccc(O)cc1 returned Rango release inh inconclusive, Rango-impB inh inconclusive, GLA inh pH 4.5 -25 and miR-21 FLuc -34%.
O=C1C=C(c2ccccc2)OC2(CCCC2)O1 was read as Rango release inh 10%, Rango-impB inh -4.0%, GLA inh pH 4.5 5 and miR-21 FLuc 2%.
`COc1cc(OC)c(NC(=O)CC(=O)Nc2cc(Cl)c(OC)cc2OC)cc1Cl` gave Rango release inh -4%, Rango-impB inh -1.2% and miR-21 FLuc -7%.
`COc1ccccc1N(CC1CO1)S(=O)(=O)c1ccccc1` (centres undefined) gave Rango release inh -14%, Rango-impB inh 5.3% and miR-21 FLuc 2%.
`CCCOC(=O)c1ccc(NC(=O)/C=C/c2cccs2)cc1` gave Rango release inh 31%, Rango-impB inh -3.0%, GLA inh pH 4.5 -16 and miR-21 FLuc -30%.
COc1ccc(OC)c(NC(=O)CCCc2ccccc2)c1 was read as Rango release inh 8%, Rango-impB inh 0.6% and miR-21 FLuc -8%.
`COC(=O)CCC(=O)NC(=S)Nc1sc(C)c(C)c1C(N)=O` gave Rango release inh -1%, Rango-impB inh 7.7%, GLA inh pH 4.5 1 and miR-21 FLuc 21%.
Screening Cc1cc(C)c2c(C)nn(-c3ccccc3)c2n1 returned Rango release inh -12%, Rango-impB inh 0.0%, GLA inh pH 4.5 -5 and miR-21 FLuc -9%.
CCOC(=O)c1c(N=CN(C)C)c2cc([N+](=O)[O-])cnc2n1C was read as Rango release inh 12%, Rango-impB inh -1.3%, GLA inh pH 4.5 0 and miR-21 FLuc 1%.
For Cc1ccc(C(=O)COC(=O)c2cc(Cl)nc3ccccc23)cc1C the results were Rango release inh 2%, Rango-impB inh 0.4%, GLA inh pH 4.5 -7 and miR-21 FLuc 0%.
COc1cc(N)c(C(=O)c2nccc3cc(OC)c(OC)cc23)cc1OC was read as Rango release inh -3%, Rango-impB inh 2.6% and miR-21 FLuc -10%.
Cc1ccc(CN(C(=O)c2ccc(Cl)c([N+](=O)[O-])c2)C2CCS(=O)(=O)C2)o1 (centres undefined) was read as Rango release inh 1%, Rango-impB inh 5.5% and miR-21 FLuc -1%.
`CCOC(=O)C1CCCN(C(=O)c2cc3cc(F)ccc3[nH]2)C1` (centres undefined) gave Rango release inh 0%, Rango-impB inh -1.3% and miR-21 FLuc 1%.
`O=C(Cc1cccs1)NCCc1csc(-c2ccccc2)n1` gave Rango release inh -15%, Rango-impB inh -0.4%, GLA inh pH 4.5 -3 and miR-21 FLuc -2%.
For CCN1C(=O)/C(=C/c2nc3ccccc3c(=O)[nH]2)c2ccccc21 the results were Rango release inh inconclusive, Rango-impB inh inconclusive, GLA inh pH 4.5 -2 and miR-21 FLuc -11%.
`COc1cc(/C=C/C(=O)O)ccc1OS(=O)(=O)c1c(C)c(C)cc(C)c1C` gave Rango release inh 28% and Rango-impB inh 0.8%.
For CCSc1ccc(-c2nn(-c3ccccc3)cc2/C=C(/C#N)C(=O)NC)cc1 the results were Rango release inh -2%, Rango-impB inh inconclusive, GLA inh pH 4.5 29 and miR-21 FLuc 0%.
For O=C1Cn2c(nc3ccccc32)N1c1cccc(C(F)(F)F)c1 the results were Rango release inh -2%, Rango-impB inh -0.4%, GLA inh pH 4.5 4 and miR-21 FLuc 0%.
Screening O=C(CN1C(=O)NC2(CCCCCCC2)C1=O)NCc1ccc2c(c1)OCO2 returned Rango release inh -2%, Rango-impB inh 2.9%, GLA inh pH 4.5 11 and miR-21 FLuc -9%.

Bioassay records from PubChem.

This is a subset; rates above refer to the full screens.
